# Assay outcomes as filed in PubChem.
# Vif A3G = inhibitors of Vif binding to APOBEC3G peptide, primary screen, biochemical, TR-FRET, GST-Vif 1-94, biotin-A3G peptide, dose response retest (AID 1117319); inhibition, %; hits with a dose series show IC50 in µM; TR-FRET GST-Vif / biotin-A3G peptide binding; higher % means a stronger effect; test concentration not given here; strong numbers were not always called active; 260,000 compounds, 0.57% hits;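 active = above the screen mean plus three standard deviations and confirmed in dose response; inconclusive = results disagree or hit not tested in dose response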;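 also: Vif residues 1-94 fused to GST binding biotinylated APOBEC3G peptide 110-148; 0% = full assay without inhibitor and 100% = GST in place of GST-Vif; retest series ran down from 100 µM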
# Bfl-1 A1 inh = caspase 3/7 activation in MEF A1-2A-BIM cells, primary screen, A1 inhibitor project, cell-based, luminescence, HTS; Caspase-Glo 3/7 luminescence, 3 h; percent of clofoctol response, vehicle zero; caspase activation, % (test concentration not listed); 330,000 compounds, 0.066% hits; AID 2462, 2010;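 active = over half of replicate activation scores above 10%, or exactly half above 10 with the replicate mean above 10; inconclusive = replicate mean below 10 yet half the replicates above 10; inactive = over half of replicates below 10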;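 also: wells of about 30 µL received 50 nL stock; many hits fall short of the cut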
# Beta2AR agonist = beta2AR agonists driving receptor internalization, primary screen, cell-based, FAP fluorogen, flow cytometry; Beta-2 adrenergic receptor (Homo sapiens), P07550; Am2.2-beta2AR cells; reference of the scale not given here; response, % (no concentration beside the values); 340,000 compounds, 0.43% hits; AID 504454, 2011;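 active = response above a set limit, near 3 SD of response in nonfluorescent compounds, cut at about 42% in these data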;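 also: stock transfer was 100 nL into about 11 µL; a reference agonist was the positive control; negative values mostly stem from fluorescent compounds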
# LANA-H2B inh = blockers of LANA interaction with H2A/H2B – biochemical, FP readout, HTS, primary screen; 320,000 compounds, 0.6% hits; Protein LANA1 (Human herpesvirus 8 type P (isolate GK18)), Q9QR71; inhibition, % (test concentration not listed); AID 2629, 2010; cell-free LANA-H2A/H2B peptide, fluorescence polarization; in the data active = inhibition mostly above about 10%, no sharp cut-off; inactive = mostly below about 6.7%;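 also: stock transfer was 7.5 nL into about 10 µL; 0% = median of vehicle wells and 100% = median of positive control wells; one replicate is shown; the record names a cut of 25% in any replicate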
# UCH37 inh = inhibitors of human UCH37 deubiquitinase, primary screen, biochemical, Ub-AMC cleavage, fluorescence; purified proteasome/UCH37; AID 588478, 2011; Ubiquitin carboxyl-terminal hydrolase isozyme L5 (Homo sapiens), Q9Y5K5; inhibition, % (no concentration beside the values); 330,000 compounds, 0.33% hits;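 active = mean of two replicates above 20%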;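 also: 0% = compound-free wells with enzyme and 100% = wells lacking proteasome; stock transfer was 100 nL into about 20 µL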
# Target sequence (Q9Y5K5 whole entry, looked up): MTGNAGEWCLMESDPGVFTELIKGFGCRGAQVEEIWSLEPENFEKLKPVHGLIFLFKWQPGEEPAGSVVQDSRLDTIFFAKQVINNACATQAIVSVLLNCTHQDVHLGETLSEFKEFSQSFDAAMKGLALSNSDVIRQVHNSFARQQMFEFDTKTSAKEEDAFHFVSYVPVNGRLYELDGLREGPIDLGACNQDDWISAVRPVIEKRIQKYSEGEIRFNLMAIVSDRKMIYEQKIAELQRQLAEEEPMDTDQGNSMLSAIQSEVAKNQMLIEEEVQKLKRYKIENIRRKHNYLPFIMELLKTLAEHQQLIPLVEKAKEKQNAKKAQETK
#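 Material: Human UCH37 enzyme supplied as purified proteasome complex | Schedule: 30 min preincubation with enzyme, 25 min cleavage at room temperature | Detection: AMC fluorescence 355/460 nm | Measure: % inhibition of Ub-AMC cleavage fluorescence | Controls: Wells without proteasome as full block, compound-free enzyme plus substrate as uninhibited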
# E coli growth = E. coli growth inhibition, primary screen, OD600; Escherichia coli growth, 23 h; stronger effect = lower value; OD600 absorbance (test concentration not listed); 330,000 compounds, 0.21% hits; AID 1053175, 2014;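 active = OD600 absorbance below the run mean of sample wells minus 3.6 SD, in any replicate, cut at about 0.56 in these data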;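 also: stock transfer was 300 nL into about 60 µL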
# HNF4A DNA FP = change in binding of human HNF4A to DNA, primary screen, biochemical, fluorescence polarization, FITC-DNA; Hepatocyte nuclear factor 4-alpha (Homo sapiens), P41235; activity change, % at 10 µM; 1 h; 360,000 compounds, 0.3% hits; in the data active = activity change above about 30%, passing the limit was not always enough;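 also: controls were the assay level and a saturating level of protein; the project sought stronger binding though the title names inhibitors; some compounds called inactive have numbers as strong as hits; positive values seem to mean higher polarization but the record does not say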
# Target sequence (P41235 whole entry, looked up): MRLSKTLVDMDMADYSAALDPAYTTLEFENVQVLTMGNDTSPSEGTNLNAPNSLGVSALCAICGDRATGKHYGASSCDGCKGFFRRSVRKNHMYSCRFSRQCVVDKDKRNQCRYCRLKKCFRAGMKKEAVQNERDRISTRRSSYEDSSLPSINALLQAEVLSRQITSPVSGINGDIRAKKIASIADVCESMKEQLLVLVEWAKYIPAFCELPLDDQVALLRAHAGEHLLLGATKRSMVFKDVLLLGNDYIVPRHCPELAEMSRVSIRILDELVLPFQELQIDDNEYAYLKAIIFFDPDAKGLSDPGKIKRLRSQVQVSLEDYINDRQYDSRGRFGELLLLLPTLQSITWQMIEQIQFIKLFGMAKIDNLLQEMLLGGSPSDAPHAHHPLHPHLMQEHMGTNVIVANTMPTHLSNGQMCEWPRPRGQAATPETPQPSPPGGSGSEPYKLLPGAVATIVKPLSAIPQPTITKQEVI
# * hit, by the source's call; ? = inconclusive; . = no result given; & = joins results of further samples.
SMILES,Vif A3G,Bfl-1 A1 inh,Beta2AR agonist,LANA-H2B inh,UCH37 inh,E coli growth,HNF4A DNA FP
O=C(Cn1nnc2ccccc21)N/N=C\C=C\c1ccccc1,-4%,-1.0,3,0.8,.,.,1.1
CCn1c(=O)c(C(=O)NNC(=O)c2ccccc2)c(O)c2ccccc21,.,0.2,6,0.3,-12,0.69,1.7
CC(C)c1ccccc1NC(=O)COC(=O)Cc1ccsc1,.,0.3,-7,-3.1,2.1,0.67,0.1
COc1ccc(F)cc1C(=O)C1CCCN(Cc2cccn2-c2ccccn2)C1 (stereo not drawn),5%,-0.4,8,-3.5,-17,0.69,-0.6
COC(=O)Nc1sc2c(c1C(=O)NCc1ccco1)CCCC2,>100µM*,1.6,6,-4.7,2.0,0.68,1.3
O=C1C(=O)N(CCN2CCOCC2)C(c2ccc(F)cc2)/C1=C(/O)c1ccc(S(=O)(=O)N2CCOCC2)cc1 (stereo not drawn),.,-0.2,-1,-2.6,11,0.72,2.6
O=C(Cc1c(F)cccc1Cl)OCC(=O)N1CCc2ccccc21,-4%,-0.2,-1,1.8,3.2,0.66,3.1
CN(Cc1nc(-c2cccnc2)no1)S(=O)(=O)c1ccc2ccccc2c1,6%,-0.6,12,3.3,3.1,0.69,6.6
Nn1c(SCC(=O)Nc2ccccc2)nnc(Cc2ccccc2)c1=O,-3%,0.7,2,-5.2,4.5,0.71,4.2
Cc1cccc2sc(N(CCCN(C)C)C(=O)c3ccc(S(=O)(=O)N4CCc5ccccc5C4)cc3)nc12,.,1.6,46*,-4.1,2.5,0.68,7.0
COc1cccc(CNC(=O)CCNS(=O)(=O)c2ccc3c(c2)CC(C)N3C(C)=O)c1 (stereo not drawn),5%,-0.2,2,3.1,0.5,0.65,4.4
CC(=O)c1ccc(NC(=O)c2noc3c2CCCCC3)cc1,-1%,-3.3,1,0.3,-0.2,0.67,3.0
Cc1ccc(Cn2nc(C)cc2C(=O)Nc2ccccc2Cl)cc1,.,-2.9,-5,2.5,1.2,0.66,0.3
CCOC(=O)Cc1csc(NS(=O)(=O)c2ccc(NC(C)=O)cc2)n1,1%,-7.5,-3,0.9,4.0,0.67,-4.5
Cc1c(CCC(=O)O)c(=O)oc2cc3occ(C(C)(C)C)c3cc12,4%,-1.2,-11,2.3,-32,0.66,-0.4
Cc1cc2c(s1)CCCCC(=O)N2,?,0.9,-1,5.2,0.5,0.69,0.2
CCCCC(=O)Nc1ncc2c(n1)CC(C)(C)CC2=O,9%,0.0,3,-4.9,0.6,0.75,0.2
CCC(C(=O)NC1CCCCC1)n1c(SCc2ccc(F)cc2)nc2ccncc21 (stereo not drawn),-1%,-0.9,6,0.1,4.4,0.7,-1.3
CCCCN(C(=O)c1ccc(C)c(S(=O)(=O)N2CCOCC2)c1)c1c(N)n(CC(C)C)c(=O)[nH]c1=O,3%,-0.1,4,4.1,-1.9,0.65,-0.7
Cc1nc(C)c(C(=O)N2CCCC(C(=O)c3ccc4ccccc4c3)C2)s1 (stereo not drawn),.,0.0,0,-0.6,-18,0.71,1.2
c1cc(C2CCCCC2)ccc1Oc1nc(N2CCOCC2)nc(N2CCOCC2)n1,?,0.8,4,0.0,2.9,0.71,-20
COc1cccc(CN2C(=O)c3ccccc3C2C(=O)NCC2CCCO2)c1 (stereo not drawn),-5%,-0.4,5,0.4,1.8,0.67,-0.2
Oc1ccccc1CN1CCN(C(O)(c2ccccc2)c2ccccc2)CC1,.,-0.5,14,-1.5,1.3,0.68,5.9
CN(Cc1ccccc1)C(=O)CCC1CCN(S(=O)(=O)N(C)C)CC1,.,-0.7,-10,-1.0,3.5,0.67,2.2
O=C(CN1C(=O)c2ccccc2C1=O)c1ccc(F)cc1,0%,-0.3,10,1.0,2.9,0.66,6.5
Cc1cc(NC(=O)c2c(Cl)cnn2C)no1,3%,-0.7,15,-2.3,2.2,0.74,-1.3
CN1CCN(C2CCN(c3cccc(Cl)c3)CC2)CC1CCO (stereo not drawn),.,0.3,-5,0.4,5.4,0.7,3.2
CCCOc1cccc(-c2nnc(N)s2)c1,-2%,0.1,-12,-1.2,2.5,0.7,-1.8
O=C(Nc1nnc(SCc2ccccn2)s1)C1CC(=O)N(c2ccccc2)C1 (stereo not drawn),.,1.1,-18,.,4.9,0.66,-0.8
Cc1cc(C(=O)Nc2cccc(C)c2C)n(-c2ccccc2)n1,1%,1.1,-8,-0.7,2.4,0.68,-2.5
COc1ccc2nc(-c3cccc(N)c3)[nH]c2c1,28%,-12,3,9.6,-201,0.72,-3.7
COc1ccc(C2CC(=O)N(CC(=O)NCC3CCCO3)c3ccccc3S2)cc1OC (stereo not drawn),?,-0.9,5,4.8,6.9,0.71,-1.1
CCN(C(=O)CSc1nc2ccccc2[nH]1)C1CCS(=O)(=O)C1 (stereo not drawn),.,2.5,1,0.2,-0.6,0.69,2.8
CNC(=O)NC(=O)CSc1ncc(C(F)(F)F)cc1Cl,4%,0.4,-1,-0.9,2.4,0.7,-0.7
O=C(c1ccccc1)C(c1ccccc1)c1ccccc1,.,-0.1,2,5.6,0.9,0.66,4.0
CCOc1ccc(C(c2c(C)n(C)n(-c3ccccc3)c2=O)c2c(C)n(C)n(-c3ccccc3)c2=O)c(O)c1,.,-0.2,-10,-5.9,1.1,0.63,-3.0
Cc1cc(C)c(OCC(=O)OCC(=O)NC2CCCCCCC2)c(C)c1,.,0.3,-3,-0.7,2.8,0.67,-0.8
CCOC(=O)N1CCC2(CC1)C(C#N)=C(N)Oc1c2c(C)nn1-c1cccc(Cl)c1,-4%&15%,0.8,2,12,1.5,0.73,-4.4
COc1cc2c(cc1OC)C(COc1ccc(C(C)C)cc1)NCC2 (stereo not drawn),.,0.2,-1,0.0,1.0,0.71,1.4
Cc1ccc(C)c(OCCn2cc(/C=C(\C#N)C(=O)NCc3ccco3)c3ccccc32)c1,1%,-1.1,-9,11,-17,0.74,7.7
O=C(CNC(=O)c1ccco1)OCC(=O)c1cccc2ccccc12,-4%,0.8,22,-0.9,7.5,0.68,0.1
COc1ccc(C2CC(=O)C(C=NCCCO)=C(O)C2)cc1 (stereo not drawn),-10%,0.7,7,2.7,0.9,0.71,-19
COc1ccc(/C=N/NC(=O)c2cccnc2)c(C(=O)O)c1OC,-3%,0.7,-1,-3.4,.,.,-2.8
Cc1ccc(CN(CC(=O)NCC2CCCO2)S(=O)(=O)c2ccc(C)cc2)cc1 (stereo not drawn),.,0.3,5,-0.9,3.7,0.7,3.2
OCC[C@@H]1C[C@H](O)[C@@H](O)[C@@]2(CCc3ccccc3CO2)O1,.,-0.6,9,-6.5,-0.3,.,1.5
CC(=O)NS(=O)(=O)c1ccc(NC(=O)c2ccc(NC(=O)c3cccs3)cc2)cc1,-4%,-0.6,-20,2.5,1.2,0.66,0.5
CCOc1ncccc1C(=O)OCC(=O)c1cccs1,2%,-0.4,8,0.0,1.6,0.65,-1.6
Cc1nccn1CCCNC(=O)CC1C(=O)NCCN1Cc1ccc(F)cc1Cl (stereo not drawn),.,-0.2,1,-0.1,-2.5,0.63,1.6
COc1ccc(C(=O)CC(=O)C(=O)Nc2cc(Cl)c(OC)cc2OC)cc1,-4%,0.6,1,3.9,4.4,0.7,4.8
CN(C)S(=O)(=O)N1CCCC(C(=O)c2ccc(-c3ccccc3)cc2)C1 (stereo not drawn),-2%,-0.2,-8,0.9,-3.6,0.68,-0.8
CCCCn1c(C)cc2cc(O)ccc21,32%,1.2,8,-0.7,6.8,0.74,15
C[C@@H]1COC(=O)[C@H](CC(=O)OC(C)(C)C)C/C=C\C[C@@H](CC(=O)N[C@H](CO)Cc2ccccc2)C(=O)N1,.,-0.4,0,-3.3,0.3,0.78,0.5
O=C(NNC(=O)c1cc(Br)c(Br)s1)c1csc(N2CCOCC2)n1,-4%,1.0,4,2.1,-0.8,0.72,-0.2
CCn1cc(C(=O)NCCCN(CC(C)C)CC(C)C)c(=O)c2cc(S(=O)(=O)N(C)C3CCCCC3)ccc21,.,1.1,9,-3.0,4.7,0.73,1.0
Oc1ccc(/C=N/Nc2nccnc2Cl)c(O)c1,9%,-7.5,9,1.4,.,.,1.6
Cc1ccc(C)c(NC(=O)c2cc(-c3cccnc3)nc3ccccc23)c1,-14%,-0.6,-7,3.7,0.8,0.69,4.4
c1csc(-c2ccc3ccccc3n2)c1,-4%,-4.9,-3,0.3,.,0.69,0.6
COc1ccc(OC)c(S(=O)(=O)N2CCC(C(=O)NCc3cccnc3)CC2)c1,-4%,-1.1,12,-1.9,1.4,0.68,0.2
CCOC(=O)c1c(S(=O)(=O)NCc2ccc(OC)cc2)c(C)n(C)c1C,6%,1.2,6,-0.1,1.8,0.73,3.6
O=C(OCC(=O)N1CCCC1=O)c1ccc(O)cc1O,-6%,-0.6,-3,2.3,-1.0,0.68,0.7

# Arranged by value in Beta2AR agonist (descending): 3 from the list above
molecule	Vif A3G	Bfl-1 A1 inh	Beta2AR agonist	LANA-H2B inh	UCH37 inh
CCn1cc(C(=O)NCCCN(CC(C)C)CC(C)C)c(=O)c2cc(S(=O)(=O)N(C)C3CCCCC3)ccc21	.	1.1	9	-3.0	4.7
CCOc1ncccc1C(=O)OCC(=O)c1cccs1	2%	-0.4	8	0.0	1.6
C[C@@H]1COC(=O)[C@H](CC(=O)OC(C)(C)C)C/C=C\C[C@@H](CC(=O)N[C@H](CO)Cc2ccccc2)C(=O)N1	.	-0.4	0	-3.3	0.3

# Next records follow.
SMILES,Vif A3G,Bfl-1 A1 inh,Beta2AR agonist,LANA-H2B inh,UCH37 inh,E coli growth,HNF4A DNA FP
Cc1ccc(S(=O)(=O)NC(N)=NCCc2ccccc2)cc1C,1%,0.3,5,0.4,2.5,0.68,0.1
N/C(=N\N=C/c1ccc(Br)cc1)N/N=C\c1ccc(Br)cc1,5%,0.9,7,-5.8,.,.,1.5
COC(=O)CNC(=O)c1ccc(NS(=O)(=O)c2cc([N+](=O)[O-])ccc2Cl)cc1,.,0.5,-10,0.8,1.5,0.71,-0.3
O=C(Nc1ccc(-c2nc3cccnc3s2)cc1)c1cccnc1Cl,-14%,-4.2,-14,-3.2,-33,0.71,1.9
CC(C)=CCCC(C)CN1CCC(n2nccc2NC(=O)C2CCCC2)CC1 (stereo not drawn),0%,0.2,4,-1.1,0.5,0.66,-5.3
O=C(O)CCSCCCN1C(=O)c2cccc3cccc(c23)C1=O,?,-0.3,-1,1.3,-1.1,0.7,-0.8
CCCCC(=O)Nc1nnc(S(=O)(=O)N2CCCc3ccccc32)s1,.,-0.2,-5,0.9,1.8,0.7,0.2
COc1cc(NS(=O)(=O)c2ccc(NC(=O)c3ccc(F)cc3)cc2)ncn1,.,0.1,6,-4.1,5.7,0.71,-1.8
CCOC(=O)CC1C(=O)NCCN1C(=O)COc1ccc(C(C)(C)C)cc1 (stereo not drawn),.,0.8,4,-0.5,0.4,0.66,-0.7
O=S(=O)(Nc1nc(CN2CCOCC2)nc2sc3c(c12)CCCC3)c1cc(F)ccc1F,32%,1.0,4,-0.3,-5.1,0.68,0.2
Cn1nnc(NC(=O)C(c2ccccc2)c2ccccc2)n1,0%,0.2,15,-2.2,1.7,0.68,-1.5

# Not a hit list. About 2.1% of those tested had a hit in this group.
